PINK1 modulator = changes PINK1 expression; 410,000 tested, 0.2% active; AID 624263; Potency, µM (titrated, usually from 76.6 µM), without a hit: at the highest dose activation (PINK1 increase), actives largely listed as activators; PINK1 immunofluorescence, high-content cytometry, 24 h; active = well fitted activation curve with a large enough effect; inconclusive = small, poorly fitted or top-dose-only effect; inactive = flat fitted curve, though single readings scatter; cell line not stated here;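 note: potency is the fitted concentration of half-maximal effect; % of control where 0% means no effect; nearly all actives have a fitted effect of over 65% in size; a mitochondrial uncoupler was the plate control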
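Decision-based qHTS: stable cells, 24 h exposure to five compound concentrations, CCCP as control. Fixed cells stained for PINK1 plus nuclear, mitochondrial and cell markers, cytometer read.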
D2 ag = human D2 receptor agonism in beta-arrestin assay | P14416 | DiscoveRx PathHunter D2 beta-arrestin, luminescence, 90 min; 100% = 57 uM dopamine signal | activation, % (concentration not given with the values) | 360,000 tested, 0.084% active | AID 624465; in the data active = activation above about 40%; inconclusive = about 15% to 40%; inactive = below about 15%; note: compound concentration not given in the record; the text of the record calls up to 30% inactive
Target sequence (P14416 whole entry, looked up): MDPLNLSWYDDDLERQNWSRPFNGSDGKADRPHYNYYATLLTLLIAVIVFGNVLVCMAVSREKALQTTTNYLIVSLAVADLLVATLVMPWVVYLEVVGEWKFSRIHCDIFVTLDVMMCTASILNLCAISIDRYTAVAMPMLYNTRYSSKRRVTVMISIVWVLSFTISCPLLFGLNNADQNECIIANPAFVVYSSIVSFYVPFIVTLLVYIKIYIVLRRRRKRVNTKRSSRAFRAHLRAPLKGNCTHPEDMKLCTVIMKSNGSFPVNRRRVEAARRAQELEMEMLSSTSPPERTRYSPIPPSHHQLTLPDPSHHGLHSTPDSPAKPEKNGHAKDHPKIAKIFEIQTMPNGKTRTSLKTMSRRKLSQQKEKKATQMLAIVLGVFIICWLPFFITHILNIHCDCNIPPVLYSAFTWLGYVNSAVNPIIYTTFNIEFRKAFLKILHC
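Agonist mode: compounds alone added to overnight-plated D2 PathHunter cells for 90 min at 37 C, with 57 uM final dopamine (EC100) defining full response. Beta-arrestin recruitment detected by chemiluminescent reagent, read after 1 h at ambient temperature.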
TRPML1 agonist = human mucolipin-1 channel agonism | TRPML1-expressing cells, Ca2+ dye fluorescence, FDSS; host cell line not named in the record; reference of the full effect not given here | activation, % (no concentration beside the values) | Q9GZU1 | AID 624414 | 410,000 tested, 0.12% active; in the data active = activation above about 50%; inconclusive = about 30% to 50%; inactive = below about 30%; note: 0% is about no effect; the text of the record puts the active cut at 80%
Target sequence (Q9GZU1 whole entry, looked up): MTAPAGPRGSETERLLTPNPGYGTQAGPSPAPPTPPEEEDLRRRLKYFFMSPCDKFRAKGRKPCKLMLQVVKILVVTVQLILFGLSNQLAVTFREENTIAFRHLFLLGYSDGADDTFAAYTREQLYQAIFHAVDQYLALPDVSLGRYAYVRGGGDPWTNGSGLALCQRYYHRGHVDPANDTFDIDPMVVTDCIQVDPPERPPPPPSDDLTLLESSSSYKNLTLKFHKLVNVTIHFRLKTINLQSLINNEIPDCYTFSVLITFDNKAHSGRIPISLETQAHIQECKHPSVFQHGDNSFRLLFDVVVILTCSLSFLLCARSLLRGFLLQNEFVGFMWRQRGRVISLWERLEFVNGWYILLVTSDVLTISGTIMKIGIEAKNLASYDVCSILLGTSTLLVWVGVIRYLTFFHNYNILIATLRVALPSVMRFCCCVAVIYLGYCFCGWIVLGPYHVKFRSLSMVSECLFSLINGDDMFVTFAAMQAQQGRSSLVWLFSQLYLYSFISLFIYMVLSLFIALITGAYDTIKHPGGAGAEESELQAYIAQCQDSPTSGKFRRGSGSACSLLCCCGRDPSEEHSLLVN
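TRPML1-DL cells, Tet-induced overnight (~16 h, 37 degrees C), loaded 45-90 min at room temperature with Ca8 no-wash calcium dye plus quencher. FDSS fluorescence: 10 s baseline, compound pin-transfer, 110 s agonist read, then EC80 54-4 (4uM final) and 110 s antagonist read.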
TRPML1 inh = blocks the human TRPML1 channel | activity change, negative = inhibition, % (concentration not given with the values) | Q9GZU1 | 390,000 tested, 0.02% active | TRPML1-inducible cells, Ca2+ dye fluorescence, FDSS; active compounds read low; inhibition of EC80 agonist-evoked calcium signal; in the data active means activity change below about -50%; inconclusive means about -30% to -50%; inactive means above about -30%;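 note: stimulus is agonist 54-4 at its EC80 concentration; % is set by controls: 0 for no effect and ±100 for the full control effect; the text of the record puts the active cut at -80%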
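Calcium fluorescence in TRPML1-DL cells induced overnight with Tet: a 110 s read after compound pin addition, then a 110 s antagonist read after challenge with 54-4 at 4 uM final (EC80).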
D2 potentiator = positive allosteric modulators of human D2 dopamine receptor. P14416. DiscoveRx D2 beta-arrestin cells, luminescence, 90 min; 100% = 57 uM dopamine signal. potentiation, % (concentration not given with the values). 360,000 tested, 0.23% active. AID 624464; active = potentiation of 50% or more; inconclusive = 30% to 50%; inactive = 30% or less;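 note: compound concentration not given in the record; tested on top of an EC20 dose of dopamine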
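PathHunter D2 cells, attached overnight at 37 deg C, received compound in DMSO plus dopamine at EC20 (50 nM final) for 90 min at 37 deg C. Beta-arrestin recruitment was read as luminescence after 1 h with detection reagent at ambient temperature.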
Six1-Eya2 blk = inhibitors of human Six1/Eya2 interaction. Q15475+O00167. AlphaScreen GST-Six1/His-Eya2 binding, biochemical; active compounds read low; control for the full effect not named in the record. activity change, % (test concentration not listed). 360,000 tested, 0.56% active. AID 651725; in the data active = activity change below about -65%; inconclusive = about -30% to -65%; inactive = above about -30%; note: % is set by controls: 0 for no effect and ±100 for the full control effect
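Six1/Eya2 binding was read as AlphaScreen signal after compounds were pinned into GST-Six1 plus His-tagged Eya2 (5X stock 250/500 nM) in pH 8.0 Tris/NaCl/TCEP buffer, beads added, then incubated 1 h, 37 C, dark.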
The depositor's hits bear a star; ? = inconclusive; · = not tested or not shown; [ ] = another dose, or the depositor's remark.

SMILES	PINK1 modulator	D2 ag	TRPML1 agonist	TRPML1 inh	D2 potentiator	Six1-Eya2 blk
CC1CCN(CC(=O)NC(=O)NCc2ccccc2)CC1	1.4%	-3.2	-0.8	-17	-12	2
Cc1nc2ccc(Cl)cc2nc1C	2.6%	3.7	0.3	-15	-3	8
Cc1c(C(=O)N(C)Cc2ccccc2)oc2c(Cl)cccc12	9.9%	-2.7	1.6	56	-8	15
COc1cccc(C(=O)NCC(=O)OCC(=O)Nc2ncc(Cl)cc2Cl)c1	5.1%	-0.4	-1.4	23	8	-12
COc1ccc(Cl)cc1NC(=S)NNC(=O)c1cccs1	2.3%	2.5	1.2	11	-16	-3
COc1cc(NC(=O)c2ccco2)c(OC)cc1NC(=O)CCC(=O)Nc1cccc(C)c1C	?	-2.6	0.1	30	-12	?
Nc1nc(Nc2ccccc2)nc(N2CCCC2)c1[N+](=O)[O-]	-0.7%	0.2	1.5	-10	-5	-12
O=S(=O)(Nc1nc2ccccc2s1)c1ccc(Cl)nc1	0.8%	-4.8	·	·	-2	4
CN(C)CCNC(=O)c1cccc(-c2cccc3nccn23)c1	0.1%	-7.4	-0.1	·	-11	8
CCN(CC(=O)NCc1cccs1)C(=O)c1cc(S(=O)(=O)N2CCOCC2)ccc1C	1.8%	-4.3	-0.8	11	-5	-1

Arranged by formula weight (low to high): some entries from above
SMILES	PINK1 modulator	D2 ag	TRPML1 agonist	TRPML1 inh	D2 potentiator	Six1-Eya2 blk
CN(C)CCNC(=O)c1cccc(-c2cccc3nccn23)c1	0.1%	-7.4	-0.1	·	-11	8
Cc1c(C(=O)N(C)Cc2ccccc2)oc2c(Cl)cccc12	9.9%	-2.7	1.6	56	-8	15
O=S(=O)(Nc1nc2ccccc2s1)c1ccc(Cl)nc1	0.8%	-4.8	·	·	-2	4
COc1ccc(Cl)cc1NC(=S)NNC(=O)c1cccs1	2.3%	2.5	1.2	11	-16	-3
COc1cc(NC(=O)c2ccco2)c(OC)cc1NC(=O)CCC(=O)Nc1cccc(C)c1C	?	-2.6	0.1	30	-12	?

Full records, looked up by structure. Order of screens: PINK1 modulator	D2 ag	TRPML1 agonist	TRPML1 inh	D2 potentiator	Six1-Eya2 blk
`COc1ccc(Cl)cc1NC(=S)NNC(=O)c1cccs1` reads 2.3%	2.5	1.2	11	-16	-3
`Nc1nc(Nc2ccccc2)nc(N2CCCC2)c1[N+](=O)[O-]` reads -0.7%	0.2	1.5	-10	-5	-12
`CC1CCN(CC(=O)NC(=O)NCc2ccccc2)CC1` reads 1.4%	-3.2	-0.8	-17	-12	2
`CCN(CC(=O)NCc1cccs1)C(=O)c1cc(S(=O)(=O)N2CCOCC2)ccc1C` reads 1.8%	-4.3	-0.8	11	-5	-1

(next part)
SMILES	PINK1 modulator	D2 ag	TRPML1 agonist	TRPML1 inh	D2 potentiator	Six1-Eya2 blk
CCOC(=O)c1c(C)oc2nc(C)nc(NCCCN3CCN(c4cc(Cl)ccc4C)CC3)c12	3.9%	·	-0.5	8	·	·
COc1ccc(S(=O)(=O)Nc2ccc(C(N)=O)cc2)cc1C(=O)N1CCCCCC1	1.2%	-2.9	-0.6	13	-5	-2
COc1cc(C(=O)n2nc(C)cc2C)ccc1O	-0.1%	-3.5	-0.3	3	8	4
O=C(/C=C/c1ccccc1)OCCN=C1NS(=O)(=O)c2ccccc21	1.2%	-2.8	-0.6	6	-3	-4
Cc1ccc2ncnc(NCCCCCC(=O)O)c2c1	2.0%	1.2	-0.9	-2	-5	12
Cc1ccc(C(=O)Nc2ccc(C(=O)N/N=C/c3ccccn3)cc2)cc1	3.8%	2.7	0.0	-7	0	?
O=C(NCCC1=CCCCC1)c1ccc2c(c1)N(Cc1ccccc1F)C(=O)c1ccccc1S2(=O)=O	6.8%	·	0.2	3	·	·
Nc1ccc(S(=O)(=O)NC2=NCCCCC2)cc1	2.9%	-2.3	0.5	-9	0	1
CC1(C)C2CCC1(C)C(OC(=O)c1ccc(O)cc1)C2 (stereo unspecified)	-1.3%	1.6	1.3	-9	1	20
COc1ccc(C(=O)NC(=S)N2CCOCC2)cc1Br	0.6%	2.0	-0.5	-9	7	0
COc1cccc(N2CCN(C(=O)c3cc4cc(Cl)ccc4[nH]3)CC2)c1	8.9%	-5.2	·	·	1	-10
Cc1ccc(NS(=O)(=O)c2ccc(-n3cccn3)cc2)c(Cl)c1	-0.1%	-2.3	-1.0	8	-9	-3
Cc1cccc2nc(CSc3nc4cc([N+](=O)[O-])ccc4s3)cn12	4.7%	-0.7	0.2	-13	-6	-9
COc1ccc([N+](=O)[O-])cc1NC(=O)c1ccc(C)o1	1.1%	0.3	-0.2	22	-18	0
CC(CC(=O)Nc1ccccc1)n1ccnc1 (stereo unspecified)	0.0%	-9.4	-0.6	-13	-3	-1
Nc1cc(C(F)(F)F)ccc1NCCc1ccccn1	2.1%	0.0	1.8	-4	-2	0
Cc1cccc(/C=N/n2c(-c3cc(-c4ccccc4)n[nH]3)n[nH]c2=S)c1	3.8%	-3.3	1.5	6	-16	-18
O=C(c1ncn[nH]1)N1CCN(c2nc(-c3ccccc3)cs2)CC1	-0.3%	-2.3	-0.9	11	1	?
COc1ccc(Cc2c(N)nc(N)nc2N)cc1	-0.2%	0.0	-0.3	-15	3	0
CC(Oc1ccc(F)cc1)C(=O)Nc1cc(-c2ccc(F)c(F)c2)no1 (stereo unspecified)	0.7%	·	10	37	·	·
CC(/C=C/c1ccc2c(c1)OCO2)=N\NC(=O)COc1ccccc1C	23%	0.3	-1.2	-11	-3	2
COc1ccc(-c2noc(CCCOc3ccccc3)n2)cc1OC	4.9%	-1.5	0.3	2	3	21
Cc1cccc(-c2nc(CS(=O)CC(=O)N3CCCCC3)c(C)o2)c1 (stereo unspecified)	-0.5%	-3.7	1.0	-6	0	24
CCOC(=O)c1c(C)cc(O)cc1O	2.9%	-2.9	·	·	-6	1
CCOC(=O)CN(c1ccccn1)S(=O)(=O)c1ccc(OC)cc1	-1.3%	7.9	-0.3	-4	-2	0
O=C(NCC(=O)N1CCC2(CC1)NCCc1[nH]cnc12)c1ccc2ccccc2c1	-1.1%	-5.2	-0.1	17	-13	-2
CCOc1ccc(C(c2c(NC(=O)c3ccco3)sc(C)c2C)N2CCOCC2)cc1 (stereo unspecified)	1.4%	4.1	0.7	13	1	-6
Cc1nc2c(cnn2-c2ccccc2Cl)c(=O)n1-c1ccc(N2CCC(C)CC2)cc1	-2.1%	-3.4	7.5	-5	5	-6
Cc1ccc(NC(=O)c2ccc3c(c2)OCCO3)cc1	1.0%	-3.0	-0.7	4	-14	19
O=C(N/N=C/c1ccc(OC(=O)c2cccs2)cc1)c1cccc(F)c1	4.4%[38.3 µM]	4.2	-0.1	-7	-2	-4
Cc1cc(C)cc(CC2CC(=O)N(c3ccc([N+](=O)[O-])cc3)C2=O)c1 (stereo unspecified)	2.3%	1.6	1.8	5	-2	-2
CCCCn1c(SCC(=O)Nc2cc(C)on2)nnc1-c1cccnc1	5.0%[38.3 µM]	0.9	-0.5	10	-3	8
O=C(COc1ccc2c3c(c(=O)oc2c1)CCC3)NCC(O)c1ccccc1 (stereo unspecified)	6.2%	0.4	-0.6	13	-6	3
CCC(C)Nc1nnnc2c1sc1nc3c(cc12)COC(C)(C)C3 (stereo unspecified)	1.7%	-4.2	-0.5	32	18	-5
O=C(CN1C(=O)NC2(CCCC2)C1=O)Nc1cccc(Cl)c1Cl	0.4%	0.1	0.1	2	3	20
Cc1ccccc1NC(=O)c1c(C)nn(-c2ccccc2)c1Cl	-2.8%	-1.7	0.0	2	-3	-5
Cc1ccc(NC(=S)N(CCN2CCOCC2)Cc2ccccc2F)cc1	-0.6%	-4.9	-0.9	5	-24	-5
COc1cc2[nH]c(C(=O)NCc3ccccc3)cc2c(OC)c1OC	2.8%	1.0	0.8	19	-21	-10
Cc1cc(C)c2oc(C(=O)NCc3ccccc3)cc(=O)c2c1	5.0%	-3.4	-0.6	-9	-4	0
Nc1nc(N)c2cc(Sc3ccc(Cl)cc3)ccc2n1	-2.3%	-4.3	0.2	9	-15	-3
CCOc1ccc(OCC)c(NC(=O)C2CCN(c3ncccn3)CC2)c1	-2.1%	-2.9	-0.2	0	-10	-1
CCOC(=O)COc1ccc2c3c(c(=O)oc2c1)CCCC3	2.1%	-1.1	0.3	-6	4	2
CSCCC(Nc1ccc(S(=O)(=O)N2CCOCC2)cc1[N+](=O)[O-])C(=O)OCC(=O)NCC(C)C (stereo unspecified)	-1.4%	-2.3	0.4	-9	-23	-11
CCc1ccccc1NC(=O)Cn1nc(C)c2nn(-c3ccc(Cl)cc3)c(C)c2c1=O	1.8%	·	1.0	9	·	·
COc1ccc(-c2nc(-c3ccccc3OC)no2)cc1OC	1.6%[38.3 µM]	-3.5	-0.2	4	-3	-8
CC(=O)c1cccc(NC(=O)C(C)OC(=O)CCc2nc3ccccc3c(=O)[nH]2)c1 (stereo unspecified)	0.0%	3.0	-0.4	-10	-32	1
CC(=O)N=c1c(C#N)cc2c(=O)n3ccccc3nc2n1Cc1ccccc1	27%	-1.4	2.9	-18	5	-2
COc1cc(OC)cc(C(=O)NC(C(=O)N2CCC2)C(C)C)c1 (stereo unspecified)	-0.3%	1.5	0.4	26	-15	10
O=C(c1sccc1Br)N1CCN(Cc2ccc3c(c2)OCO3)CC1	0.2%	-6.0	-0.9	21	-19	-11
CCn1c(CNc2ccc(F)cc2)nnc1SCC(=O)N1CCCc2ccccc21	-0.5%	-1.4	0.0	13	-8	6

(more compounds)
SMILES	PINK1 modulator	D2 ag	TRPML1 agonist	TRPML1 inh	D2 potentiator	Six1-Eya2 blk
O=S(=O)(NCCCN1CCOCC1)c1ccc(Cl)s1	2.7%	-3.6	·	·	-26	2
CCOC(=O)N1CCN(CC(=O)Nc2ccc(F)c(F)c2F)CC1	-0.9%	-1.3	-0.8	-4	-4	3
O=C(NN1C(=O)c2ccccc2C1=O)C1CC2CCC1C2 (stereo unspecified)	-1.0%	-1.3	-0.2	3	-7	3
Cc1cc(C)cc(-n2c(C)nc3cc(C(=O)NCc4ccc(F)cc4)ccc32)c1	0.5%	·	4.2	24	·	·
CCNc1nc(NCC)nc(N(n2cnnc2)S(=O)(=O)c2ccc(C)cc2)n1	-0.2%	-2.8	2.4	15	-15	7
Cc1cc(/C=C(\C#N)C(=O)NCc2ccco2)c(C)[nH]1	-1.1%	-0.7	-1.2	-19	-25	-14
COc1ccc(NC(=O)Cc2coc3cc(C)ccc23)cc1S(=O)(=O)N1CCOCC1	0.9%	-1.7	-0.8	16	-3	-11
COc1ccc(-c2cn[nH]c2-c2ccc(OCc3ccc(F)cc3)cc2O)cc1OC	4.4%	2.5	-0.4	14	-10	-11
COc1cc(/C=N/n2cnnc2-n2nc(C)cc2C)cc([N+](=O)[O-])c1O	1.5%	-6.9	-0.8	-1	-13	1
CN1C(=O)/C(=C/c2ccc(OCc3ccc(C(=O)O)cc3)c(Cl)c2)NC1=S	-1.2%	-1.8	-0.5	26	-2	-10
Cc1cccc(NC(=O)c2oc(=O)c3ccccc3c2-c2ccccc2)c1C	8.6%	1.6	2.2	42	-12	-9
COc1ccc(/C=N/S(=O)(=O)c2ccc(C)cc2)cc1	-0.6%	0.1	0.4	1	-7	0
